# Bioassay records (PubChem BioAssay)
# TRPV1 potentiator: potentiators of human vanilloid receptor 1 (TRPV1); Q8NER1; TRPV1-expressing cells, Fluo-8 calcium influx, capsaicin EC20 potentiation; host cell line not named in the record; control for the full effect not named in the record; potentiation, % at 8.33 µM; hit rate 0.02% among 320,000; AID 540277; active means potentiation above 80%; inconclusive means 30% to 80%; inactive means below 30%; note: 0% is about no effect
# Target sequence (Q8NER1 whole entry, looked up): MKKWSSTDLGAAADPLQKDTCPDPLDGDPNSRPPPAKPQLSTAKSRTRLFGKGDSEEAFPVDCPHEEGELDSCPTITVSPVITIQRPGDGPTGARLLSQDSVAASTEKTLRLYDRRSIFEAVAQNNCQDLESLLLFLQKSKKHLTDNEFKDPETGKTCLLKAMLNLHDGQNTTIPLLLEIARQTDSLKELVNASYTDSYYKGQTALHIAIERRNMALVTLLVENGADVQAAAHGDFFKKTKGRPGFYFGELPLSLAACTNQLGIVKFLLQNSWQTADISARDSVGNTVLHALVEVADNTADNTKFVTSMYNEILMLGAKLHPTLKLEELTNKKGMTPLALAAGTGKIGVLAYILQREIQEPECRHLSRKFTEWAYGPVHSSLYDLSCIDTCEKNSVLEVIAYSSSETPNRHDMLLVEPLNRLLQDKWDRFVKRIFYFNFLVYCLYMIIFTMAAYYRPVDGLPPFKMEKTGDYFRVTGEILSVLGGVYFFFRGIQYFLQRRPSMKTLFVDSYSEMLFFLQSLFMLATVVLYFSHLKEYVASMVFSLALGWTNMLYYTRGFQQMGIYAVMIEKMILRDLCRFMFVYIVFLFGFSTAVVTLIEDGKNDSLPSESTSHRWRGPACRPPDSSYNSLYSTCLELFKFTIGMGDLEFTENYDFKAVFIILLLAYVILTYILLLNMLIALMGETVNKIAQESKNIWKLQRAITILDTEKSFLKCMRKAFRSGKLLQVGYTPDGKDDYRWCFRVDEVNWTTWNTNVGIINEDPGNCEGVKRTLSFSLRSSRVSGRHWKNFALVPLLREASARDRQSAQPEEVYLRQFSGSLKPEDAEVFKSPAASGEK
#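 Fluo-8 calcium influx in TRPV1-expressing cells, kinetic read (ex 480/em 520 nm). Compound added and read 3 min for agonist activity, followed by capsaicin at EC20 final and 2 min further read for enhancement.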
# Menin-MLL FL inh: menin-MLL binding inhibition, fluorescein peptide | Fluorescence polarization, fluorescein-MLL peptide displacement from menin | FP activity change, % at 61.4 µM | 290,000 tested, under 10 active; inconclusive = falling polarisation curve, or a change in total fluorescence; inactive = total fluorescence flat and polarisation flat or rising; no compound was filed as active; the % refers to the polarisation; negative = inhibition;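 note: % of control where 0% means no effect; inhibitors lower the polarisation; unlabelled MLL peptide was the positive control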
# ClpP mod: qHTS Assay for Activators of ClpP; ATP-dependent Clp protease proteolytic subunit (Bacillus subtilis (strain 168)), P80244; purified B. subtilis ClpP, FRET peptide cleavage, 20 min; Potency, µM (highest dose often 57.5 µM), inactives show at the highest dose activity change, negative = active; hit rate 1.9% among 340,000; AID 651965, 2013; active = well fitted falling curve with a large enough effect; inconclusive = small, poorly fitted or top-dose-only effect; inactive = no such curve, though single readings can be large or run the other way; note: potency is the fitted concentration of half-maximal effect; the source files actives as falling curves though it sought activators and does not explain the sign; nearly all actives have a fitted effect of over 65% in size; many hits overshoot -100%
# Target sequence (P80244 whole entry, looked up): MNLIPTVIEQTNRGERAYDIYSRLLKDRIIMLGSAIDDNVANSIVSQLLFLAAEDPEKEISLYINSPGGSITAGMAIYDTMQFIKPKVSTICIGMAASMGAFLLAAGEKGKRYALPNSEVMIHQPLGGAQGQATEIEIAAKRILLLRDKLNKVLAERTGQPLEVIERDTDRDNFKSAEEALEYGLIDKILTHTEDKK
#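 Buffer: 100 mM Tris/HCl pH8, 100 mM KCl, 0.05% low protease BSA, 2.5% glycerol, 0.01% Tween-20. ClpP 10 microg/mL final; 20 min RT; delta FRET normalized to ADEP and DMSO controls.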
# gsp antag: antagonizes gsp, the McCune-Albright syndrome mutation; AID 624288; hit rate 0.4% among 340,000; gsp-mutant cells, cAMP HTRF, 30 min; control for the full effect not named in the record; Potency, µM (highest dose often 76.9 µM), without a hit: top-dose activity change, negative = inhibition, hits mostly inhibitors; active = falling curve of any shape with a large fitted effect; inconclusive = falling curve, mostly with a smaller effect; inactive = flat or rising curve; cell line not stated here;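 note: intracellular cAMP measured with PDE inhibitor Ro 20-1724 present during compound exposure; potency is the fitted concentration of half-maximal effect; % is set by controls: 0 for no effect and ±100 for the full control effect; nearly all actives have a fitted effect of over 65% in size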
#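 Cells in G418 medium, seeded 16-24 h, 37C; buffer exchange to DPBS + 1 mM CaCl2, 0.5 mM MgCl2, 0.05% BSA; cpds in DMSO + […] (300 uM stock), 30 min 37C; HTRF cAMP detection.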
# Sfp PPTase inh: blocks B. subtilis Sfp PPTase activity; Q9F4F7; Biochemical Sfp PPTase activity, qHTS; AID 1490; Potency, µM, for the others: max response, negative = inhibition, hits mostly inhibitors; hit rate 3.5% among 310,000; active = well fitted inhibition curve with a large enough effect; inconclusive = small, poorly fitted or top-dose-only effect, or another doubt; inactive = no such curve, though single readings can be large or run the other way;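 note: the enzyme is Sfp with the accession as filed and its product quenches rhodamine fluorescence; potency is the fitted concentration of half-maximal effect; 0% = enzyme reaction without inhibitor and -100% = no enzyme wells; top concentration of the series not given in the record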
#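 Fluorescence-quenching assay: 15 nM Sfp-PPTase preincubated 15 min at room temperature with compound, then 5 uM rhodamine-CoA and 12.5 uM BHQ-2-labelled YbbR peptide added. Fluorescence (ex 525/em 598 nm) read at start and after 30 min; difference gives rate.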
# CtBP-E1A inh: blocks the CtBP interaction with E1A | AlphaScreen GST-E1A/His-CtBP binding, 1536-well; active compounds read low; control for the full effect not named in the record | activity change, % (test concentration not listed) | hit rate 0.49% among 340,000; in the data active means activity change below about -65%; inconclusive means about -30% to -65%; inactive means above about -30%; note: % is set by controls: 0 for no effect and ±100 for the full control effect
#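 Steps: dispense buffer (Tris pH 8.0, NaCl 300 mM, TCEP 1 mM, BSA, Tween 20); add 5X protein mix (GST-E1A, His-CtBP, 125 nM each); pin 23 nL compound; 2 h at 37 °C, dark; add 5X beads (50 ug/mL); 1 h; read.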
# gsp agonist: activates gsp, the McCune-Albright syndrome mutation; gsp mutant cells, cAMP HTRF, 30 min; control for the full effect not named in the record; Potency, µM (doses to about 76.9 µM), inactives show at the top dose activation (cAMP increase), most hits filed as activators; hit rate 0.13% among 340,000; AID 624287; active = well fitted activation curve with a large enough effect; inconclusive = small, poorly fitted or top-dose-only effect, or another doubt; inactive = no such curve, though single readings can be large or run the other way; cell line not stated here;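 note: phosphodiesterase inhibitor Ro 20-1724 added with compounds to block cAMP breakdown; potency is the fitted concentration of half-maximal effect; nearly all actives have a fitted effect of over 60% in size; about a fifth of the inactives were tested at one dose only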
#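 Cells stably selected in G418 were plated at 2000/well, grown 16-24 hr, then given compounds in DMSO with the PDE inhibitor […] (300 uM solution added) for 30 min at 37C; cAMP was read by HTRF.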
# Starred values were filed as active, the others as inactive; ? = inconclusive; / = not tested or not shown; [ ] = remark or other dose. The order is random, and some 5.3% of all compounds hit somewhere here.
SMILES,TRPV1 potentiator,Menin-MLL FL inh,ClpP mod,gsp antag,Sfp PPTase inh,CtBP-E1A inh,gsp agonist
O=S(=O)(c1ccc(F)c(F)c1F)N1CCN(c2ncnc3sccc23)CC1,/,/,-2.4%,-5%,/,14,41%
CC(=O)Oc1ccc2ccc(=O)oc2c1,-11,-1.3,4.2%,2%,11%,3,/
COc1ccc(CNC(=O)OCCN2CCN(S(=O)(=O)c3ccc(C)cc3)CCC2=O)cc1,-11,0.0,-1.6%,5%,5%,-17,15%
COC/C=C/C1=CC2=CC(=O)C(C)(OC(=O)c3cnc4ccccc4n3)C(=O)C2=CN1CC(C)C (stereo not given),/,-8.2[11.7 µM],-5.9%,-8%,?,-2,/
c1ccc(-c2n[nH]c(-c3ccccn3)n2)cc1,3,-0.5,-8.7%,-9%,12%,-92*,-45%[inhibitor]
CCc1ccccc1Nc1nc2ccccc2n1C(C)C,9,5.2,/,0%,3%,-1,-20%[15.4 µM]
COc1ccc(Cl)cc1C(=O)Nc1ccccc1N1CCN(C(=O)C(C)C)CC1,7,3.3,5.6%,-2%,0%,-29,?
O=C1c2ccccc2NC(c2ccccc2O)N1O (stereo not given),-1,0.6,-3.0%,-3%,-4%,1,17%
CN(C)C(=S)SCCn1c(N)nc(N(C)C)nc1=O,2,1.4,/,4%,15%,1,13%
CN1C[C@@H]2[C@@H]3C(=O)N(C)C(=O)[C@@H]3[C@](C)(C1=O)N2C(=O)c1ccc(F)cc1,/,/,2.6%,8%,/,7,/
Cc1c(C(=O)Nc2ccc3c(c2)OCO3)oc2ccccc12,1,0.9,/,-23%,-6%,-5,-10%[15.4 µM]
COc1cccc(NC(=O)N2CCCC2C(=O)NCc2ccccc2)c1 (stereo not given),21,0.0,-1.4%,6%,13%,-4,-11%
CCC(C(=O)Nc1ccc(S(=O)(=O)Nc2ncccn2)cc1)c1ccccc1 (stereo not given),0,0.9,-0.8%,-4%,13%,9,18%
CN(C)S(=O)(=O)N1CCN(c2ccc([N+](=O)[O-])c(N3CCCCC3)c2)CC1,-2,-3.8,/,-8%,-3%,-1,-1%[15.4 µM]
Cc1cc(-c2nn(-c3ccccc3F)cc2CNCCc2cnccn2)c(C)s1,-11,-5.4,-0.2%,-18%,-8%,-4,22%
OCCC1CN(Cc2cn[nH]c2C2CCCCC2)CCN1C1CCCCC1 (stereo not given),5,0.2,/,10%,18%,18,3%[15.4 µM]
O=C1/C(=C\c2ccc(O)c(O)c2)C(c2ccccc2)=NN1c1ccccc1,4,8.6,/,-1%,50µM*,4,-20%
CCN(CC)CCNC(=O)c1cn(CC)c2cc(N3CCN(C)CC3)c(F)cc2c1=O,?,-1.9,3.6%,3%,-5%,-17,14%
Cc1ccc(NC(=O)NC2CCCc3ccccc32)cc1 (stereo not given),-10,/,-1.6%,6%,-4%,0,?
O=C(N/N=C/c1ccccc1[N+](=O)[O-])c1ccncc1,1,-0.7,2.3%,8%,3%,8,?
CCOC(=O)c1c(C)[nH]c(/C(C)=N/NC(=O)c2cccnc2)c1C,/,/,2.0%,/,/,7,-17%
CC(C)(C)NC(=O)c1ccnc(C(C)(C)C)c1,6,-1.0,1.3%,10%,14%,-2,9%
CCN(CC(=O)Nc1ccccc1C(F)(F)F)C(=O)CCOc1ccccc1C,2,/,0.9%,-27%,/,3,-13%[15.4 µM]
COc1ccc2nc3n(c(=O)c2c1)-c1ncccc1C(=O)NC3Cc1ccccc1 (stereo not given),/,/,-4.7%,/,/,4,0%
Cc1ccc(NS(=O)(=O)c2ccc(C(=O)NCCN3CCOCC3)cc2)cc1,/,/,-2.3%,3%,/,-5,5%
# (continued)
SMILES,TRPV1 potentiator,Menin-MLL FL inh,ClpP mod,gsp antag,Sfp PPTase inh,CtBP-E1A inh,gsp agonist
CCCCCOc1ccc(C(=O)NCC2(c3ccccc3)CCOCC2)cc1,30,5.3,-1.1%,-20%,14%,-4,-58%[inhibitor]
CCOC(=O)N1CCN(C(=O)COc2ccccc2[N+](=O)[O-])CC1,2,-2.6,0.7%,4%,0%,11,-8%[15.4 µM]
CC(=O)N1CCN(C(=O)c2ccc(Cl)c(NC(=O)c3cccs3)c2)CC1,0,/,-1.4%,-5%,/,-10,5%
O=C(Cn1cnc([N+](=O)[O-])n1)N/N=C/c1ccc(O)cc1O,-7,-1.7,/,0%,-13%,-96*,-41%[inhibitor]
O=[N+]([O-])c1cccc(CON=Cc2ccccc2O)c1,/,/,-0.5%,/,/,2,-54%
CC12CN(Cc3ccccc3)CC(C)(CN(Cc3ccccc3)C1)C2=NO,0,0.2,0.6%,10%,12%,-2,?
NC(=O)c1cc[n+](CC2=C(C(=O)O)N3C(=O)[C@@H](NC(=O)C(c4ccccc4)S(=O)(=O)[O-])[C@H]3SC2)cc1 (stereo not given in full),0,3.8,-1.7%,?,11%,-7,/
CC(=O)C[C@H](O)CC(=O)[C@H]1OC(=O)CCCCCCCc2ccccc21,-14,/,1.1%,-3%,/,0,/
O=C(c1ccc(Cl)cc1)C1CCN(Cc2ccccc2)CC1,-11,-1.1,0.1%,5%,-2%,/,-23%
CCc1nc(NCCCN2CCOCC2)c2oc3ccccc3c2n1,-11,-6.3,-7.8%,-2%,13%,-2,0%
CC1=C(N2CCOCC2)CCC1=O,/,/,0.4%,8%,/,1,5%
O=C(NC1CC1)c1ccc(-n2cccc2)cc1,-36,0.1,/,9%,6%,-1,5%[15.4 µM]
CCn1c(C2CC(=O)N(c3ccc(C)c(C)c3)C2)nc2ccccc21 (stereo not given),-17,-1.7,0.1%,-8%,20%,0,2%
COC(=O)c1cc(CNC(=O)Cc2ccsc2)ccc1OC,9,2.0,/,6%,15%,4,-7%
CCC(=O)NC(=S)NNC(=O)c1ccc([N+](=O)[O-])cc1,-20,-0.7,1.2%,-6%,79µM*,8,-32%[inhibitor]
COc1ccc(C)cc1Nc1n[n+](-c2ccccc2)c(-c2ccc(NC(C)=O)cc2)s1,22,26,1.5%,-4%,?,0,-35%
Cc1cc(C)cc(NC(=O)CN(C)S(=O)(=O)c2cccc3nsnc23)c1,-10,-4.6,0.5%,0%,-12%,-1,?
O=C(c1ccccc1Br)N1CCN(c2ncccn2)CC1,-7,4.2,-0.1%,6%,10%,2,-4%[15.4 µM]
c1ccc(CN2CCC(N=C3NN=C(c4ccc5c(c4)OCCO5)CS3)CC2)cc1,8,2.0,/,/,-6%,-9,-5%[15.4 µM]
COc1cccc(/C=N/Nc2cc(-n3nc(C)cc3-c3ccccc3)ncn2)c1O,12,7.4,-2.5%,-21%,13%,4,7%
O=C(OCc1cn([C@H]2CN(CC3CCCCC3)[C@@H](c3ccccc3)C[C@@H]2O)nn1)c1ccccc1,/,/,0.9%,/,/,3,-11%
Cc1ccc2c(c1)C(=O)N1[C@H]3c4cc(C)ccc4OC[C@@H]3[C@H](c3ccccc3)[C@]1(C)C(=O)N2,/,/,-14%,-16%,/,/,-12%
COCCn1c(SCC(=O)N2CCCCCC2)nnc1-c1ccco1,2,-2.8,/,4%,14%,2,44%
CCC(CC)CN1C(Nc2ccccc2)=NC[C@@H]1CC(C)C,-13,-0.7,-1.1%,10%,-6%,7,-42%[inhibitor]
Nc1cc(SCc2ccc(Cl)cc2Cl)ncn1,/,/,/,2%,/,11,20%
# Next section
SMILES,TRPV1 potentiator,Menin-MLL FL inh,ClpP mod,gsp antag,Sfp PPTase inh,CtBP-E1A inh,gsp agonist
CC(C(=O)N1CCN(C2c3ccccc3-c3ccccc32)CC1)N1C(=O)c2ccccc2C1=O (stereo not given),0,3.5,-0.1%,-37%,-14%,-6,-2%[15.4 µM]
O=C(N/C(=C\c1ccc2c(c1)OCO2)C(=O)N1CCOCC1)c1ccccc1Br,12,1.9,0.9%,2%,15%,0,-4%[15.4 µM]
CCOC(=O)N1CCC(Nc2c(Nc3cccc(CC)c3)c(=O)c2=O)CC1,16,3.9,1.1%,?,-1%,-14,?
CNC(=O)COc1ccc2oc3c(c2c1)CCCC3,-3,1.6,/,-1%,11%,5,17%[15.4 µM]
CCNC(=O)CC1S/C(=N/N=C(\C)c2ccccc2)NC1=O (stereo not given),8,0.9,-0.9%,?,7%,/,1%
Cc1sc2nc(C(C)(C)C)oc(=O)c2c1C,0,-0.8,-0.7%,7%,13%,1,-50%
O=C(N/N=C/c1ccoc1)c1ccccc1F,1,4.8,-0.6%,14%,1%,1,?
Cc1c(Br)cnn1C(C)C(=O)N1CCN(c2ccccc2F)CC1 (stereo not given),?,/,2.2%,10%,/,12,16%
CNC(=O)c1c(NC(=O)CCS(=O)(=O)c2ccc(Cl)cc2)sc2c1CCN(C(=O)OC)C2,1,/,/,-13%,/,1,16%[15.4 µM]
CCOC(=O)c1cnc2ccc(C(=O)OC)cc2c1NCCN1CCOCC1,12,-16,-6.3%,-9%,13%,11,-8%
CCOC(=O)[C@H]1[C@H]2COc3ccccc3[C@@H]2N2C(=O)c3cc(Cl)ccc3NC(=O)[C@@]12C,22,/,-3.7%,-14%,/,-16,-3%
CC(C)n1c(N2CCN(C(=O)Nc3ccc(F)cc3F)CC2)nc2ccccc21,7,4.2,1.3%,7%,-10%,-3,-1%
COc1ccc(NC(=O)CSc2nc3ccccc3nc2N2CCOCC2)cc1,7,0.7,-3.8%,-6%,3%,3,22%
Clc1cccc(-c2ccc(-c3nc4ccccn4c3NCc3ccccc3)cc2)c1,/,/,?,-6%,/,-8,/
Cc1ccccc1N(C(=O)Cc1cccs1)C(C(=O)NC1CCCCC1)c1cn(C)nc1C (stereo not given),-15,5.5,1.0%,-7%,6%,5,-39%[inhibitor]
O=C(Nc1cccc2ncccc12)c1ccc(-c2ccc(Cl)cc2Cl)o1,-4,1.5,-24%,-8%,0%,-20,?
CCOc1ccc(CCNC(=O)COC(=O)CNC(=O)c2ccc(Br)o2)cc1OCC,11,/,/,1%,/,9,-7%[15.4 µM]
CCCOc1cccc(C(=O)NC(=S)Nc2ccc(N3CCN(C)CC3)cc2)c1,3,0.1,/,14%,3%,1,-5%[15.4 µM]
